H5N1 antiviral: MDCK cell protection from H5N1 avian flu | actives 0.07% (n = 96,000) | inhibition, % at 50 µM | cytopathic effect, luminescence, 72 h; hits give high values; no value below 0 was filed and about half of the inactive calls have no number; reference of the scale not given here; in the data active means inhibition above about 25%
Numbers without * were called inactive; i = inactive. Only part of the results is shown; count on the stated rates, not on these rows.

The first 2 entries, to show the layout:
SMILES | H5N1 antiviral
CCOC(=O)C1CCN(c2nc3cc(OC)ccc3cc2C#N)CC1 | 0.8
CCN=c1scc(-c2ccco2)n1/N=C/c1ccc(O)cc1 | 8.4

This part in full (from the top)
SMILES | H5N1 antiviral
CCOC(=O)C1CCN(c2nc3cc(OC)ccc3cc2C#N)CC1 | 0.8
CCN=c1scc(-c2ccco2)n1/N=C/c1ccc(O)cc1 | 8.4
CN(C)CCCOC(=O)c1cc2ccccc2o1 | i
COCCn1c(=S)[nH]c2ncccc2c1=O | i
CCCc1cc(=O)[nH]c(SCc2nc3ccccc3s2)n1 | 0.4
CCCCn1nnc(NC(=O)c2ccc(-c3ccccc3)cc2)n1 | i
COc1ccc(NC(=O)N2c3ccccc3CC2C)cc1OC (stereo not drawn) | 0.5
O=C(OCc1cnc(Cl)s1)c1ccc(Cl)cc1 | i
Cc1oc(-c2ccccc2F)nc1CN1CCC(C(=O)NCc2ccco2)CC1 | 1.3
CN1C(=O)C(C(=O)NC(C)(C)C)C2c3ccccc3OC13CCCCC23 (stereo not drawn) | 1.1
CCOC(=O)C1CCN(C(=O)c2ccccc2Oc2ccccc2)CC1 | 2.1
Cc1nnc(NC(=O)Nc2ccc(Cl)c(Cl)c2)s1 | 3.0
COc1cc(OC)c(S(=O)(=O)N2CCCCC2)cc1S(=O)(=O)N1CCCCC1 | 2.1
Cc1onc(-c2ccccc2)c1C(=O)Nc1ccncc1 | 0.3
Cc1ccc(S(=O)(=O)CCc2nnc(NC(=O)c3cnccn3)s2)cc1 | 0.6
COCCCNC(=O)CS(=O)(=O)Cc1nc(-c2cccc(OC)c2)oc1C | 0.7
Cc1ccccc1C(=O)c1c[nH]c(C(=O)NCC2CCCO2)c1 (stereo not drawn) | i
O=C(C1=COCCO1)N1CCN(C(c2ccccc2)c2ccccc2)CC1 | i
O=C(CSc1ncn[nH]1)OCN1C(=O)c2ccccc2C1=O | i
CCn1c(COc2ccccc2C)nnc1SCC(=O)OC | 0.4
Cc1ccc(S(=O)(=O)N2CCCC(C(=O)Nc3cccnc3)C2)cc1 (stereo not drawn) | 0.2
CCOC(=O)C(=O)Nc1ccc2c(c1)OCO2 | 0.2
O=C(C1CCN(S(=O)(=O)Cc2ccccc2)CC1)N1CCCc2ccccc21 | 0.6
Cc1nc(NC(=O)COC(=O)CCS(=O)(=O)c2ccccc2Cl)c(Cl)cc1Cl | i
Cc1ccc(C)c(NC(=O)c2cnn3ccccc23)c1 | 1.7
O=C1C(c2ccncc2)=C(O)c2ccccc21 | 1.4
CC(C)c1ccc(CNC(=O)CSCC(=O)Nc2ccc3ccccc3c2)cc1 | 0.2
O=C(CSc1nnc(-c2ccccc2)o1)n1c2c(c3ccccc31)CCCC2 | 1.0
CN(C=C1C(=O)CC(C)(C)CC1=O)CCN1CCNCC1 | 1.1
COc1cccc(/C=C2\N=C(c3c(-c4ccccc4)noc3C)OC2=O)c1OC | i
O=C1Nc2ccccc2Nc2ncccc21 | 1.0
COc1ccc(C(=O)Nc2ccccc2C(N)=O)cc1 | i
COc1ccc(CNC(=O)c2c(O)c3cccc4c3n(c2=O)CCC4)cc1 | i
Cc1c(NC(=O)C(C)N2C(=O)C3C4C=CC(C4)C3C2=O)c(=O)n(-c2ccccc2)n1C (stereo not drawn) | 0.4
COc1ccc(C(C(=O)Nc2ccc(C(C)C)cc2)N(C)C(=O)CNC(C)=O)cc1 (stereo not drawn) | 1.5
CC(C)NC(=O)CC(=O)N/N=C/c1ccc(F)cc1 | i
C/C(N)=N\S(=O)(=O)c1ccc(Cl)cc1 | 0.7
COc1cc2c(cc1OC)CN(C(=O)COc1ccc(C#N)cc1)CC2 | 1.4
Clc1ccc(-n2nnnc2SCc2c(-c3ccccc3)nc3sccn23)cc1 | i
CCOC(=O)CSc1nc(C)cc(C)n1 | i
Cn1c(CC2C(=O)Nc3ccc(Br)cc32)nc2ccccc2c1=O (stereo not drawn) | 13
CC(C)N1C(=O)C2C(c3ccccc3O)NC(C)(C(=O)O)C2C1=O (stereo not drawn) | i
O=C(Cc1ccccc1)N1CCCC1c1ccccc1 (stereo not drawn) | 2.3
COc1ccc(/C=N/Nc2nnc(-c3ncc[nH]3)c3ccccc23)cc1 | i
COc1ccccc1N(CC(=O)Nc1cccnc1)S(=O)(=O)c1ccccc1 | 0.3
O/N=C1/CCc2nonc2/C1=N/O | 0.7
CCOC(=O)CSc1nnc([C@H](C)NC(=O)OC(C)(C)C)o1 | i
COc1ccc(-c2cc(C(F)(F)F)n3nc(C(=O)O)cc3n2)cc1OC | 0.3
COc1cc(C(=O)NCCCNc2nc3cc(C)cc(C)c3cc2C#N)cc(OC)c1OC | i
CC(C)C(=O)NC(=S)Nc1ccccn1 | 0.8
Cc1cccc(NC(=O)c2sc3nc(-c4ccc(F)cc4)cn3c2C)n1 | i
COC(=O)c1sc(NC(=O)CSc2nnc(C(C)C)n2C)nc1C | i
CCOC(=O)N1CCN(S(=O)(=O)c2ccc3c(c2)CCN3C(=O)C2CC2)CC1 | 2.8
CCCCCn1c(=S)[nH]c2ncccc2c1=O | i
CCCc1cc(=O)[nH]c(SCCOc2ccc(OCC)cc2)n1 | 0.1
CCOC(=O)Nc1sc(=S)n(C)c1C | 0.4
O=P(Cc1ccncc1)(c1ccccc1)c1ccccc1 | 0.8
CC(NC(=O)c1cncc(Br)c1)c1ccc(S(N)(=O)=O)cc1 (stereo not drawn) | i
CCC1CCCCN1C(=O)CSc1nnc(CNC(=O)c2cc(OC)c(OC)c(OC)c2)o1 (stereo not drawn) | i
COc1cc(-c2nnc(SCc3cccnc3)n2C)cc(OC)c1O | 2.5

Shown tab-delimited: part of the list above
SMILES	H5N1 antiviral
Cc1nnc(NC(=O)Nc2ccc(Cl)c(Cl)c2)s1	3.0
COc1cc(OC)c(S(=O)(=O)N2CCCCC2)cc1S(=O)(=O)N1CCCCC1	2.1
Cc1onc(-c2ccccc2)c1C(=O)Nc1ccncc1	0.3
Cc1ccc(S(=O)(=O)CCc2nnc(NC(=O)c3cnccn3)s2)cc1	0.6
COCCCNC(=O)CS(=O)(=O)Cc1nc(-c2cccc(OC)c2)oc1C	0.7
Cc1ccccc1C(=O)c1c[nH]c(C(=O)NCC2CCCO2)c1 (stereo not drawn)	i

Other records follow.
SMILES | H5N1 antiviral
COc1ccccc1OCc1ccc(C(=O)NCc2ccco2)o1 | i
Cc1ccccc1NC(=O)c1ccccc1NC(=O)c1ccco1 | 0.6
CC(SCc1ccccc1)C(=O)N/N=C/c1ccc2c(c1)OCO2 (stereo not drawn) | 0.2
CC(C)(C)OC(=O)N1CCC(c2cc(=O)n3[nH]cc(C(=O)NC4CCCC4)c3n2)CC1 | 1.6
CCc1ccc(C2CC(c3ccc(F)cc3)Nc3nc(N)nn32)cc1 (stereo not drawn) | i
COc1cc(OC)cc(-c2nc3ccccc3s2)c1 | 0.9
O=C(CCCc1ccccc1)NCc1cn2ccsc2n1 | i
CCOC(=O)C1CCN(S(=O)(=O)c2cc(Br)cc3c2N(C(=O)C2CC2)CC3)CC1 | i
Cc1ccc(NCc2nnc(SCC(=O)Nc3ncc(C)s3)n2Cc2ccco2)c(C)c1 | 0.5
CCOC(=O)c1cnc(-c2ccccc2)nc1Oc1ccc(Cl)cc1 | 0.1
Cc1ccc(C)c(S(=O)(=O)n2cnc3ccccc32)c1 | i
Nc1nc(N2CCN(C/C=C/c3ccccc3)CC2)nc2ccccc12 | 0.0
Cc1ccc(NC2=NC(C(=O)Nc3ccc(C)c(C)c3)CC(=O)N2)cc1 (stereo not drawn) | i
CC(C)CNC(=O)C1CCN(c2ccc(S(=O)(=O)N3CCOCC3)cc2Cl)CC1 | 0.7
Nc1nc(SCc2nc(-c3ccccc3)no2)[nH]c(=O)c1-c1ccccc1 | i
Cc1ccc2nc(C3CCN(S(=O)(=O)c4ccc5ccccc5c4)CC3)[nH]c2c1 | 0.4
O=C(CSc1nc(-c2ccco2)cc(C(F)(F)F)n1)N1CCN(Cc2ccccc2)CC1 | i
COC(=O)C1=C(C)n2nnnc2NC1c1ccc(Cl)cc1 (stereo not drawn) | i
Cn1c(Cn2c(=O)sc3ccccc32)nnc1SCC(=O)NC1CCCC1 | 1.6
CCOc1cc(C(=O)N2CCN=C2SC)cc(OCC)c1OCC | 1.8

Reprinted at random: 3 compounds from above, in no set order.
SMILES | H5N1 antiviral
Cc1ccc2nc(C3CCN(S(=O)(=O)c4ccc5ccccc5c4)CC3)[nH]c2c1 | 0.4
Cc1ccc(C)c(S(=O)(=O)n2cnc3ccccc32)c1 | i
COc1cc(OC)cc(-c2nc3ccccc3s2)c1 | 0.9

Following part:
SMILES | H5N1 antiviral
COc1ccc(-c2c/c(=N\c3nc(-c4ccccc4)c(C)s3)c3ccccc3o2)cc1O | i
CCOC(=O)c1cc(-c2ccco2)nc2c1c(C)nn2-c1cccc(Cl)c1 | 0.1
COc1cc(C2C(C#N)=C(N)Oc3cc(C)n(CCN4CCOCC4)c(=O)c32)cc(OC)c1OC (stereo not drawn) | i
COc1ccc(-n2nc(C(=O)NCc3ccco3)c3ccccc3c2=O)cc1 | 0.2
O=C(Nc1c(Cl)cc(Cl)cc1C(=O)NCC1CCCO1)c1ccco1 (stereo not drawn) | 0.9
C=C(C)Cn1c(N(CCO)Cc2ccccc2)nc2c1c(=O)[nH]c(=O)n2C | 1.9
O=C(OCCN=C1NS(=O)(=O)c2ccccc21)c1ccccc1 | i
O=C(NCCCN1CCN(Cc2ccccc2Cl)CC1)Nc1ccccc1 | i
O=C(CCc1nc2ccccc2s1)OCC(=O)N1CCN(C(=O)c2ccco2)CC1 | 0.2
O=C(Nc1ccc([N+](=O)[O-])cc1)/C(=C/c1cccc([N+](=O)[O-])c1)NC(=O)C1CCCCC1 | i
C=CCNc1nc(-c2sc(NC(=O)CC)nc2C)cs1 | 3.6
Cc1cccc(N=C2N=C(N)c3ccccc32)c1 | 3.3
Cc1nc(S(=O)(=O)N(C)c2ccccc2)c(C#N)c(C)c1Cl | 15
CC(C)(C)c1ccc(OCCC(=O)NC2=NCCS2)cc1 | i
COc1cc2c(cc1OC)C(c1cccnc1)CC(=O)N2 (stereo not drawn) | 0.9
O=C1CCCC2=C1C(c1cccs1)Nc1ccc3ncccc3c12 (stereo not drawn) | 0.3
COc1cc(OC)c(C2CC(=O)N3CN(c4ccccc4C)CSC3=C2C#N)cc1OC (stereo not drawn) | 0.4
Cc1ccccc1-c1nc(S(=O)(=O)c2ccc(Cl)cc2)c(NCCN2CCOCC2)o1 | 0.8
CCc1cc2c(CN3CCN(C)CC3)cc(=O)oc2cc1O | 0.7
CCN1C(=O)c2cccc3c(S(=O)(=O)NCCc4c[nH]c5ccccc45)ccc1c23 | 1.8

Shown comma-delimited: four of the compounds above.
Compound,H5N1 antiviral
C=C(C)Cn1c(N(CCO)Cc2ccccc2)nc2c1c(=O)[nH]c(=O)n2C,1.9
O=C(OCCN=C1NS(=O)(=O)c2ccccc21)c1ccccc1,i
O=C(NCCCN1CCN(Cc2ccccc2Cl)CC1)Nc1ccccc1,i
O=C(CCc1nc2ccccc2s1)OCC(=O)N1CCN(C(=O)c2ccco2)CC1,0.2

(cont.)
SMILES | H5N1 antiviral
COc1cc(OC)cc(C(=O)Nc2ncc3c(n2)CC(C)(C)CC3=O)c1 | 0.3
Cn1cccc1CNCCc1ccccc1 | i
C#CCSc1nc(Cc2ccc(Cl)cc2)nc2ccccc12 | i
COC(=O)COc1cc(C)cc2oc(=O)c(CC(=O)OC)c(C)c12 | 1.4
CC(C)(C)n1nnnc1C(c1ccc(F)cc1)N1CCN(Cc2ccc3c(c2)OCO3)CC1 (stereo not drawn) | 0.6
CC(=O)N1CCN(Cc2nc3cc(NC(=O)c4ccccc4C)ccc3n2C)CC1 | i
Cc1cccc(C(=O)Nc2ccccc2C(=O)OCc2c(C)noc2C)c1 | i
Cc1cc(C)c(NC(=O)c2ccccc2N(C)S(C)(=O)=O)c(C)c1 | 0.9
N[C@@H](Cc1ccccc1)c1nnc(SCc2ccccc2F)o1 | 0.5
Nn1c(SCC(=O)N2CCc3ccccc3C2)nnc1-c1cccs1 | 2.6
FCCCOc1ccc(/C=N/OCc2ccc(Cl)cc2Cl)cc1 | 0.2
CC(=O)OC1CC(n2ccc(NC(=O)c3ccccc3)nc2=O)OC1CO (stereo not drawn) | i
CCOc1cc(C=O)ccc1OCCSc1ccc(Cl)cc1 | 0.7
O=C(Cc1c[nH]c2ccccc12)NCc1ccc2c(c1)OCO2 | 2.3
Cc1cc(C)nc(-n2nc(C)c3c(C(F)F)cc(C)nc32)n1 | 0.9
CCOC(=O)Cc1csc(NC(=O)C2CCCN(S(=O)(=O)c3cnc[nH]3)C2)n1 (stereo not drawn) | 0.5
CCOC(=O)CSc1nc(-c2ccc3c(c2)OCO3)ccc1C#N | 0.1
COc1ccc(CNCCSc2nnnn2C)cc1OC | i
COc1ccccc1CC(=O)NCC1CCCO1 (stereo not drawn) | 0.1
CN(C)c1ccc(CNCCC2(O)CCOC(C)(C)C2)cc1 (stereo not drawn) | i
O=C(Nc1cccnc1)c1noc2c1CCCC2 | i
Cc1ccc2nc(/C(C#N)=C\c3ccc(N4CCCCC4)c([N+](=O)[O-])c3)[nH]c2c1 | 2.7
CO/N=C/NC(=O)c1cn(-c2ccc(F)cc2)c(=O)c2ccccc12 | 0.2
Cc1cc(NC(=O)c2ocnc2C)no1 | 5.2
Cc1ccc(S(=O)(=O)N2CCC(C(=O)NCCCN3CCCCCC3)CC2)cc1 | 0.8
O=C(O)CCCC(=O)Nc1ccc(N2CCCC2)cc1 | 1.2
Cc1cc2ccccc2c(=O)n1CC(=O)NCC(=O)N1CCCC(C)C1 (stereo not drawn) | i
O=c1[nH]n(-c2ccccn2)c(=O)c2ccccc12 | 0.7
COc1ccc(OC)c(NS(=O)(=O)c2ccc3c(c2)n(C)c(=O)n3C)c1 | i
CCOc1ccccc1NC(=O)N1CCCC(c2nc3c(nnn3Cc3ccc(C)cc3)c(=O)[nH]2)C1 (stereo not drawn) | i
COCCN(C(=O)Cn1nnc2ccccc21)C(C(=O)NC1CCCC1)c1cc(OC)ccc1OC (stereo not drawn) | 0.6
CCOC(=O)c1c(NC(=O)c2ccco2)sc2c1CCCCC2 | i
COc1ccccc1NC(=O)COc1cccc(-n2cnnn2)c1 | 0.2
Cn1c(NCc2ccccc2)cc(=O)n(C)c1=O | i
Cc1cc(C)c2c(CC(=O)Nc3ccc(Cl)cn3)coc2c1 | i
COc1ccc(OC)c(NC(=O)NC2(C(F)(F)F)Oc3ccccc3O2)c1 | i
